Screening results (PubChem BioAssay)
Calb FLC: C. albicans growth modulation with fluconazole; C. albicans CaCi-2 (fluconazole-resistant clinical isolate) + fluconazole, Alamar Blue growth, 48 h; AID 1979; hit rate 0.57% among 300,000; growth inhibition, % (concentration not given with the values);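 active = most replicates above 75%; inconclusive = exactly half above 75%; inactive = most below 75%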;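 note: all wells also contain fluconazole at 8 µg/ml as a sub-toxic cotreatment; 0% = median of DMSO wells and 100% = median of geldanamycin control wells; wells of about 8 µL received 7.5 nL stock; the first replicate is given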
Beta cell apopt: blocks beta cell apoptosis | protection from apoptosis, % (test concentration not listed) | INS-1E cytokine-induced death, ATP luminescence, 48 h; percent of positive-control rescue, neutral wells zero | hit rate 0.8% among 300,000;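 active = all replicates at 75% or more, or half of them and the mean; inconclusive = half reach 75% but not the mean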;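 note: 0% = cytokine-treated negative control wells and 100% = positive control rescue; higher means more ATP so stronger rescue from cytokine killing; wells of about 40 µL received 100 nL stock; the first replicate is given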
A1 inh: inhibitors of the anti-apoptotic protein A1, read as caspase activation; AID 2462; hit rate 0.066% among 330,000; MEF A1-2A-BIM cells, Caspase-Glo 3/7 luminescence, 3 h; percent of clofoctol response, vehicle zero; caspase activation, % (test concentration not listed);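 active = over half of replicate activation scores above 10%, or exactly half above 10 with the replicate mean above 10; inconclusive = replicate mean below 10 yet half the replicates above 10; inactive = over half of replicates below 10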;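 note: wells of about 30 µL received 50 nL stock; many hits fall short of the cut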
LANA-H2A inh: blocks KSHV LANA binding to histone H2A/H2B | AID 2629 | inhibition, % (concentration not given with the values) | Q9QR71 | hit rate 0.6% among 320,000 | cell-free LANA-H2A/H2B peptide, fluorescence polarization; in the data active = inhibition mostly above about 10%, no sharp cut-off; inactive = mostly below about 6.7%;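 note: stock transfer was 7.5 nL into about 10 µL; 0% = median of vehicle wells and 100% = median of positive control wells; one replicate is shown; the record names a cut of 25% in any replicate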
MLL AF4-AF9 inh: MLL-AF4/AF9 protein interaction inhibition | AlphaScreen, biotin-AF4 peptide binding to FLAG-AF9 | P42568 | inhibition, % at 10 µM | hit rate 0.47% among 350,000;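 active = every replicate reaching a set inhibition limit, whatever the replicate mean, cut at about 25% in these data; inconclusive = mean inhibition reaches that limit but some replicates miss it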;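 note: 0% = plate neutral control median and 100% = total signal loss; the record names both 10 and 1 µM as test concentration; the first replicate is given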
Target sequence (P42568 whole entry, looked up): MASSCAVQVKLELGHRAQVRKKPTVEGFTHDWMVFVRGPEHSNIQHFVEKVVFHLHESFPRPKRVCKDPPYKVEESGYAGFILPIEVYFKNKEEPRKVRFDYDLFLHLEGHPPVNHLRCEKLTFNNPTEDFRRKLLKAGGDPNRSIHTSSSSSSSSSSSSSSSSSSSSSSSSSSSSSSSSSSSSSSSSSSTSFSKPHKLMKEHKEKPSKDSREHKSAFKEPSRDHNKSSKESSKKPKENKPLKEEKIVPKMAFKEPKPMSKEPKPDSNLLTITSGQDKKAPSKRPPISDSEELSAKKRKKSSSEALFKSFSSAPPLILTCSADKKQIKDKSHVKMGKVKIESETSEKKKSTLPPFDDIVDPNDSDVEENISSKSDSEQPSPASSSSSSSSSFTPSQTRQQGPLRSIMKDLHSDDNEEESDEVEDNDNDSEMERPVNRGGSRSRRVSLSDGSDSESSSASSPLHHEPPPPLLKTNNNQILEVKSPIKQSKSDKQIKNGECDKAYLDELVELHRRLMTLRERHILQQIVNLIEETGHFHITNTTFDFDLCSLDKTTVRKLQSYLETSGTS
Vif A3G: HIV-1 Vif–A3G interaction blockers – biochemical, TR-FRET, GST-Vif 1-94, biotin-A3G peptide, dose response retest, primary screen (AID 1117319); TR-FRET GST-Vif / biotin-A3G peptide binding; higher % means a stronger effect; test concentration not given here; strong numbers were not always called active; inhibition, %, or IC50 in µM where a hit was titrated; hit rate 0.57% among 260,000;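 active = above the screen mean plus three standard deviations and confirmed in dose response; inconclusive = results disagree or hit not tested in dose response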;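 note: Vif residues 1-94 fused to GST binding biotinylated APOBEC3G peptide 110-148; 0% = full assay without inhibitor and 100% = GST in place of GST-Vif; retest series ran down from 100 µM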
T cruzi repl: T. cruzi replication inhibition. hit rate 1.4% among 300,000. inhibition, % (test concentration not listed). T. cruzi beta-gal in NIH3T3, luminescence, 90 h. AID 1885;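 active = mean inhibition across valid replicates above about 55%, limit read from the data; inconclusive = mean below that limit but half or more replicates reach it; inactive = mean below it, under half of replicates reach it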;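 note: signal also drops with host cell toxicity which is not excluded here; 0% = plate median of DMSO wells and 100% = zero luminescence signal; higher percent means less beta-gal luminescence so fewer parasites; stock transfer was 50 nL into about 50 µL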
RanGTP-Impb inh: inhibitors of RanGTP-importin-beta interaction, primary screen, biochemical, FRET, CFP-Ran, YFP-importin-beta, homogeneous; cell-free CFP-Ran/YFP-importin-beta FRET ratio; inhibition, % (no concentration beside the values); hit rate 1.1% among 300,000;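 active = most replicates above 15%; inconclusive = exactly half above 15%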;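 note: 0% = DMSO wells and 100% = Ran loaded with GDP instead of GTP; wells of about 40 µL received 100 nL stock; the first replicate is given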
Numbers without * were called inactive; ? = inconclusive; . = no result given; & = joins results of further samples.

Below each compound: Calb FLC	Beta cell apopt	A1 inh	LANA-H2A inh	MLL AF4-AF9 inh	Vif A3G	T cruzi repl	RanGTP-Impb inh
O=C(Cc1ccc(F)cc1)OCN1C(=O)c2ccccc2C1=O
→ 1	1	0.4	-1.5	-7.2	-2%	-15	-2.5
C/C(Cc1ccccc1)=N\NC(=O)CNC(=O)c1ccccc1
→ -3	-9	0.1	-3.3	-4.4	.	-4	-0.7
CC(=O)Nc1ccc(S(=O)(=O)NNC(=O)COc2ccc(C)cc2)cc1
→ 3	-1	0.2	7.6	1.1	?	-12	3.5
O=C(O)c1nnn(-c2cc(C(F)(F)F)cc(C(F)(F)F)c2)c1-c1ccccc1
→ 0	-1	0.4	1.4	-8.8	8%	-7	-2.0
Cc1nn(-c2ccccc2)c(C)c1NC(=O)COC(=O)Cc1ccccc1F
→ 0	-5	-0.2	-2.7	1.6	-6%	-4	3.4
CN1CCN(CC(=O)Nc2ccc(OCc3ccccc3)cc2)CC1
→ -8	0	0.0	-4.3	.	1%	13	4.7
O=C(Nc1ccc(Cl)cc1)OCc1cn(-c2ccccc2)nn1
→ -4	-2	-1.6	-5.7	0.1	.	11	-0.6
O=C(c1ccco1)N1CCN(C(=O)N2CCCC2)CC1
→ 4	-3	-0.8	-1.5	6.8	2%	-2	3.4
COc1ccc(N(CC(=O)Nc2ccc3c(c2)OCO3)S(=O)(=O)c2ccc(F)cc2)cc1
→ -3	1	-0.2	-0.8	.	5%	18	-1.1
O=C(C1CCCN(S(=O)(=O)c2ccccc2)C1)N1CCCCCC1 (stereo not drawn)
→ -1	-1	-0.1	3.2	.	1%	-3	-0.3
CC[N+](C)(CC)CCC/C(=N/O)C(O)(c1ccccc1)c1ccccc1
→ 13	-10	-0.1	6.0	0.2	-1%	-7	1.3
O=C(COc1ncnc2scc(-c3ccc(F)cc3)c12)NCc1ccco1
→ 16	-7	-0.3	-2.6	.	2%	7	4.9
CCN(CC)Cc1cc2ccccc2c2c1COC2
→ -30	.	0.0	0.3	.	3%	10	-0.8
COC(=O)/C(=C/Nc1ccc(O)cc1)[N+](=O)[O-]
→ 10	6	0.0	0.1	.	21%	-10	-5.2
COc1ccc(C(NCC(=O)NC(C)c2ccc(Cl)cc2)c2ccccc2)cc1 (stereo not drawn)
→ 13	-2	?	-3.4	2.2	-4%	13	5.7
COc1cccc(NC(=O)N2CCCC(C(=O)NCc3ccc(F)cc3)C2)c1 (stereo not drawn)
→ 6	-1	-0.3	2.7	.	0%	1	-0.2
Cc1nnc(SCCn2c(N3CCCC(C)C3)nc3c2c(=O)n(C)c(=O)n3C)s1 (stereo not drawn)
→ -4	0	0.1	-17	0.6	5%	6	-0.7
CC(CCc1ccccc1)NC(=O)COc1cc(F)ccc1[N+](=O)[O-] (stereo not drawn)
→ 18	-1	-0.2	-2.1	-3.6	15%	7	1.2
C=CCn1c(N)c(C(=O)NCC2CCCO2)sc1=S (stereo not drawn)
→ .	-5	-0.4	-5.0	.	20%	2	3.8
COc1ccc(NC(=O)CSc2sc3c(O)cc(=O)[nH]c3c2C#N)c(OC)c1
→ 1	-10	0.6	-4.3	-6.0	.	5	-2.0
Cc1ccc(C)c(C(=O)Cn2ncc(Cl)c(Cl)c2=O)c1
→ -13	-12	0.0	-3.7	.	-9%	-25	0.9
COc1ccccc1CCn1cnc2c3cc(C)ccc3n(C)c2c1=O
→ -2	-4	0.4	24*	-2.6	-8%	7	-2.1
CC(C)=C1C2CCC1C1C(=O)N(NC(=O)COc3ccc(Cl)c(C)c3)C(=O)C21 (stereo not drawn)
→ -2	1	0.2	-2.7	.	24%	-5	4.5
CCCN(CC(=O)Nc1ccccc1OC)C(=O)c1ccc(=O)[nH]c1
→ -7	-11	0.3	5.0	-2.6	.	-9	0.6
O=c1/c(=C/c2ccccc2)sc2nnc(-c3cccs3)n12
→ 4	0	0.3	-0.3	-1.4	-6%	-18	3.5
CCC(C)[C@H](NC(=O)OC(C)(C)C)C(=O)NCC1CCC(C(=O)N[C@@H](Cc2ccccc2)C(=O)O)CC1 (stereo partly drawn)
→ -8	-6	-0.1	-0.3	-5.9	.	-3	?
CCOc1ccc(C(=O)/C=C/Nc2ccc(S(=O)(=O)N=C(N)N)cc2)cc1
→ -2	1	0.1	-1.9	.	-3%	-7	-2.8
c1ccc2oc(SCc3cn4ccsc4n3)nc2c1
→ 5	-9	-0.1	-1.4	.	16%	-3	1.1
Cc1cccc(N(CC(=O)Nc2ccc(-c3nc4ccc(C)cc4s3)cc2)S(C)(=O)=O)c1
→ 1	17	-0.2	-1.0	.	?	3	3.6
Cc1ccc(S(=O)(=O)NC(CC(=O)NC2CCCC2)c2ccco2)cc1 (stereo not drawn)
→ -10	-4	0.1	5.0	.	6%	4	0.6
COc1ccc(C(=O)NC2CCN(C(=S)Nc3cc(C)cc(C)c3)CC2)cc1
→ ?	-6	-0.3	5.2	0.5	.	0	7.7
COc1cccc(C(=O)Oc2cc(-c3ccccc3)no2)c1
→ -10	3	-0.3	0.2	.	3%	2	0.1
Cc1[nH]c(=O)[nH]c(=O)c1S(=O)(=O)N1CCCC(C(=O)NCCc2ccc(Cl)cc2)C1 (stereo not drawn)
→ 12	-1	-0.1	0.6	.	29%	-15	2.8
COc1ccc(C(=NNc2ccccc2C(=O)O)c2ccc(OC)cc2)cc1
→ 23	5	0.6	3.5	0.1	23%	5	-0.2
COc1ccc(OC)c(NC(=O)NNC(=O)COc2ccc(-c3ccccc3)cc2)c1
→ 4	7	-0.6	2.8	-0.9	-2%	-10	-2.0
CCc1cc(C(=O)Nc2nnc(C3CC3)s2)sc1C
→ .	7	0.9	4.3	-0.3	-11%	.	.
CCCc1cc2c(cc1NC(=O)c1ccc(C(C)(C)C)cc1)OCO2
→ -4	3	-0.1	-5.7	5.2	-1%	42	-0.4
O=C(Nc1ccccc1)N1CCN(C(=O)Nc2ccccc2)CC1
→ -5	.	0.4	-3.9	.	?	0	2.5
CCOc1ccc(CCNC(=O)Cn2ncn3nc(-c4ccc(OC)cc4)cc3c2=O)cc1OCC
→ 12	.	-1.2	-4.5	-1.8	.	-12	5.3
CN(C)c1ccc(C=NCCC2(c3ccccc3)CCOC(C)(C)C2)cc1 (stereo not drawn)
→ -25	.	.	.	3.2	9%	20	2.0
CC1S/C(=N\N=C\c2cccc([N+](=O)[O-])c2)N(C(C)(C)C)C1=O (stereo not drawn)
→ -6	11	0.5	-8.3	.	-7%	8	1.2
CN(Cc1cccnc1)C(=O)CNC(=O)c1ccc(Cl)cc1Cl
→ -6	4	0.5	2.5	-0.9	.	1	-3.7
CCOC(=O)c1cn[nH]c1C(F)(F)F
→ 2	-5	-0.9	1.3	-0.2	6%	-3	0.6
COc1cc(C(=O)Nc2ccc(C)cn2)c([N+](=O)[O-])cc1OC
→ 0	10	0.6	-0.9	0.1	-7%	-11	5.3
Cc1ccc(C)n1-c1ccc(-c2ccn[nH]2)cc1
→ -22	-13	-0.4	-1.0	1.9	.	1	0.8
CCCCNC(=O)Nc1c(C(=O)OC)[nH]c2ccc(C)cc12
→ 7	1	0.4	-0.9	.	5%	20	1.1
CC(=O)Nc1ccc(S(=O)(=O)NNC(=O)C2CCCCC2)cc1
→ -10	-5	0.4	-3.9	-0.8	.	-2	-2.5
Cc1cc(C)[n+]2n1C(=O)C(c1ccccc1)=C2[O-]
→ -9&0	-1&0	2.2&0.9	0.4	2.6&0.2	4%&1%	-16&1	-6.0&-2.0
Cc1cccc(NC(=O)NC2(C)CCS(=O)(=O)C2)c1 (stereo not drawn)
→ -1	-2	0.0	5.6	-0.1	.	0	-5.0
COCCNC(=O)C(c1ccco1)N(C(=O)Cn1nnc2ccccc21)c1ccccc1C (stereo not drawn)
→ 4	4	0.3	-3.4	.	0%	-6	-1.9
CCOC(=O)c1ccc(NC(=O)c2ccccc2[N+](=O)[O-])cc1
→ -12	.	-0.5	1.6	.	1%	7	6.6
Cc1n[nH]c(=O)c2c(NC(=O)CSc3nc4ccccc4c(=O)n3C(C)C)oc(C)c12
→ -6	-2	0.1	2.8	-0.5	.	-8	0.1
COc1ccc(-c2csc(NC(=O)CSc3ncn[nH]3)n2)cc1OC
→ -2	-2	-0.5	11	-0.2	.	-3	0.3
O=c1c(Cc2ccc(F)cc2)c(O)ccn1Cc1ccc(F)cc1
→ 0	-4	-0.4	-2.7	-0.4	-4%	7	13
CN(CC(=O)Nc1cccc(F)c1)C(=O)c1cccnc1Sc1ccc(Cl)cc1
→ -4	0	-0.3	0.9	1.8	-1%	-10	1.0
O=C(NCCS(=O)(=O)N1CCN(c2cccc(Cl)c2)CC1)c1ccc2c(c1)OCO2
→ -2	.	0.7	4.0	0.1	-5%	1	1.6
Cc1ccc(C(=O)Oc2cc(C)[nH]c(=O)c2[N+](=O)[O-])cc1
→ ?	-1	-0.3	3.5	-2.6	6%	-6	1.0
O=C(CN(Cc1ccccc1)C(=O)CNS(=O)(=O)c1ccc(F)cc1)NCC1CCCO1 (stereo not drawn)
→ -8	-2	0.3	-3.0	2.3	1%	18	-3.1
O=C(CNCc1cccs1)Nc1ccc(S(=O)(=O)N2CCCCC2)cc1
→ -5	.	-0.3	0.5	-0.1	.	-5	6.6
Cc1cccc(C(=O)NC(=S)Nc2cccc3nc(C)ccc23)c1
→ -11	2	1.5	1.1	0.9	.	-29	-2.0

Next compounds:
Below each compound: Calb FLC	Beta cell apopt	A1 inh	LANA-H2A inh	MLL AF4-AF9 inh	Vif A3G	T cruzi repl	RanGTP-Impb inh
CCc1ccc(N(C(=O)c2snc(C(N)=O)c2N)C(C(=O)NC2CCCC2)c2ccco2)cc1 (stereo not drawn)
→ 10	-9	-1.0	-0.2	0.5	.	5	5.2
CC(C)(CO)CNC(=O)CC1C(=O)NCCN1CC(c1ccccc1)c1ccccc1 (stereo not drawn)
→ 4	-7	-0.1	6.5	1.0	-5%	-12	0.4
CCOc1ccccc1N(C(=O)c1snc(C(N)=O)c1N)C(C(=O)NC1CCCC1)c1cccs1 (stereo not drawn)
→ -4	3	-0.1	2.2	2.9	.	39	-0.9
COc1ccc(/C=C(\NC(=O)c2ccccc2)C(=O)NCCN2CCOCC2)cc1OC
→ 0	-3	0.0	-5.6	-3.5	.	-1	3.8
CCOc1ccc(NC(=O)Cn2nnc(C(=O)NCc3ccc4c(c3)OCO4)c2N)cc1
→ 1	.	-0.1	-0.3	-1.4	-4%	5	2.4
C/C(=N\N1CCN(Cc2ccc(C)cc2)CC1)c1ccco1
→ 2	0	-0.4	4.9	-6.3	-5%	7	-0.8
S=C(NCc1cccs1)NCC1CCCO1 (stereo not drawn)
→ 34	.	.	.	-2.6	.	-13	3.1
CN(C)c1ccc(N=Nc2ccccc2C(=O)OCC(=O)Nc2ccccc2C(F)(F)F)cc1
→ -13	.	.	.	15	?	-8	3.6
CC1CCCCN1C(=O)COC(=O)c1ccc2ccccc2n1 (stereo not drawn)
→ .	-1	-0.4	-1.6	-3.1	-10%	.	.
CSc1ccccc1NC(=O)COC(=O)Cc1cccs1
→ 6	-7	0.7	-2.3	0.1	-6%	-2	0.5
Cc1ccc(S(=O)(=O)NCCC(=O)NCc2ccco2)cc1
→ -11	-3	0.2	-1.4	.	8%	-9	3.4
